High-throughput results from PubChem.
UUG fidelity – alters start codon recognition fidelity in yeast; activity score, % at 18.7 µM; 350,000 tested, 0.13% active; S. cerevisiae UUG-firefly luciferase reporter, luminescence/redox ratio;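 active means replicate mean at a twofold rise or more, about +100% in these data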;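 further: firefly luciferase made from a UUG start codon reports start codon fidelity; reporter light over untreated wells divided by growth signal over untreated wells; some hits fall short of that in this replicate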
MT1-MMP act inh – MT1-MMP (human) activation inhibition | P50281 | HT1080 RFP-PRO-GFP cells, GFP/RFP ratio fluorescence, overnight; percent of plate control window, DMSO zero | 360,000 tested, 0.061% active | GFP/RFP ratio change, % at 20 µM | AID 651647;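 active means GFP/RFP ratio change of at least 30% with cell ATP level not reduced by more than half and red fluorescence within 50% of control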; further: strong numbers were not always called active
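Compound: 20 µM single dose, 1% DMSO / System: HT1080 RFP-PRO-GFP cells / Controls: DMSO and RFP-L50D-GFP cell wells / Read-out basis: GFP/RFP fluorescence ratio / Schedule: overnight compound exposure at 37 °C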
eIF4H inh – inhibitors of RNA binding by human eIF4H; Q15056; eIF4H fluorescence polarization binding assay; inhibition, % at 35 µM; 290,000 tested, 0.94% active; AID 2012;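 active means 50% or more with normal probe brightness, or confirmed in later tests; inconclusive means above 50% with abnormal brightness, or retests that disagree; inactive means below 50% or failed in later tests; about a fifth of its hits are not listed in these tables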;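 further: calls also rest on retests at 20 µM and on dose response follow-up; 0% = protein and probe with vehicle and 100% = probe without protein; strong numbers were not always called active; many hits fall short of the cut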
Rce1 inh – blocks yeast Ras-converting enzyme; yeast membranes, quenched prenylated peptide cleavage fluorescence; calls only; 290,000 tested, 0.27% active; AID 2563;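 active means fall in fluorescence gain of 50% or more versus controls, with final raw signal at or below 3038400; inconclusive means same 50% fall but final raw signal above 3038400; inactive means fall in fluorescence gain under 50%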;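 further: plate controls were neutral control wells for no effect and wells lacking membranes for full effect; tested at 10 µM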
HIV Env fusion – blocks HIV Env-driven cell-cell fusion; AID 651610; inhibition, % at 12.3 µM; 360,000 tested, 1.1% active; HeLa-JRFL Env/CEM21 cell fusion, luciferase;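 active means mean replicate inhibition score of at least 50 and every replicate individually at or above 50; inconclusive means only one of the two criteria met; inactive means mean below 50 and not all replicates reaching 50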;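 further: 0% = plate neutral controls and 100% = maraviroc near 300 nM; one replicate is shown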
PABP FP inh – blocks human PABP binding to poly(A) RNA; P11940; fluorescence polarization; inhibition, % at 35 µM; 290,000 tested, 1% active; AID 2014;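 active means 50% or more with normal probe brightness, or confirmed in later tests; inconclusive means above 50% with abnormal brightness, or retests that disagree; inactive means below 50% or failed in later tests; about a fifth of its hits are not listed in these tables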;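 further: calls also rest on retests at 20 µM and on dose response follow-up; controls were probe without protein and protein plus probe with vehicle; some compounds called inactive have numbers as strong as hits; many hits fall short of the cut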
Target sequence (P11940 whole entry, looked up): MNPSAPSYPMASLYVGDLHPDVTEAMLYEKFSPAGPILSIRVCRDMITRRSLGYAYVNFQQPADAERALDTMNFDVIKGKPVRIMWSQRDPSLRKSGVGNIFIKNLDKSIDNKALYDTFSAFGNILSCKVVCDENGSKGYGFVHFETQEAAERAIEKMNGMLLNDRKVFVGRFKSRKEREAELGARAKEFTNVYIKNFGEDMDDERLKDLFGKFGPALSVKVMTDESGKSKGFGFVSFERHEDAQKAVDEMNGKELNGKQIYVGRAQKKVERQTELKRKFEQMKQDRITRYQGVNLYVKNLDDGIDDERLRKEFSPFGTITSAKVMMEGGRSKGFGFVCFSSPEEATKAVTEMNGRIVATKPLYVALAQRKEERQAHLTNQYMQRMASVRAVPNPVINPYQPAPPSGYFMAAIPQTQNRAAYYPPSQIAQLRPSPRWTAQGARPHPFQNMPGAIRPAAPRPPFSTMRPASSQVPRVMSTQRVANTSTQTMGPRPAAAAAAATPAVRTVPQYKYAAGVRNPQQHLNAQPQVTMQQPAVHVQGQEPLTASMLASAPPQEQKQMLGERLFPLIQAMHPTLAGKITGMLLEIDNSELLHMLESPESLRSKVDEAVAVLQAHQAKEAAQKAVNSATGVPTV
CSC inhib – blocks cancer stem cells; 300,000 tested, 1.1% active; AID 2717; cancer stem cell-like cells viability, luminescence; inhibition, % at 7.5 µM;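 active means mean at 75% or more and at least half the replicates too; inconclusive means mean and replicates disagree; tested in HMLE shEcad cells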;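 further: 0% = median of negative and 100% = median of positive control wells; the first replicate is given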
MT1-MMP act inh RFP – also measured in MT1-MMP act inh; calls as there; RFP signal change, %; measured here: RFP expression control read;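 0 = vehicle wells; hits needed this value within 50% of zero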
The depositor's hits bear a star; i = inactive; ? = inconclusive; / = no result given; + = active, no number.

SMILES | UUG fidelity | MT1-MMP act inh | MT1-MMP act inh RFP | eIF4H inh | Rce1 inh | HIV Env fusion | PABP FP inh | CSC inhib
CCOC(=O)C1CCCN(Cc2ccc3c(c2)OCO3)C1 (stereo not drawn) | -15 | -5 | 2 | 11 | i | 10 | 4 | -5
CCSc1nnc(NC(=O)CSc2nnc(Cc3cccn3C)n2-c2ccc(C)cc2)s1 | -15 | 7 | 3 | 8 | i | / | 3 | -16
O=C(NNc1c2ccccc2nc2ccccc12)c1ccc(Cl)cc1 | -3 | 40* | -1.0* | 18 | i | 15 | -1 | 14
CN1CCN(c2nc(-c3ccccc3Cl)nc3ccccc23)CC1 | -3 | -19 | -7 | -2 | i | 8 | -5 | 11
O=C(NCCCN1CCOCC1)c1cn(-c2ccccc2)nc1-c1ccc(Br)cc1 | -2 | 0 | -3 | / | / | / | / | -8
CN(CC(=O)OCC(=O)NC1CCCC1)S(=O)(=O)c1ccc(Cl)cc1 | 8 | 0 | 1 | / | / | / | / | 5
Fc1ccc(NC(=S)N/N=C/c2cccc(Br)c2)c(F)c1 | -17 | 4 | -2 | -6 | i | -82 | -1 | 8
Cc1cc(C)c2c(CC(=O)NC3CCS(=O)(=O)C3)coc2c1 (stereo not drawn) | -15 | 1 | -1 | -4 | i | -1 | -3 | -2
Cc1cc(Br)c(NC(=O)COC(=O)C2CC2C)c(Br)c1 (stereo not drawn) | -5 | 3 | 3 | -1 | i | 8 | 6 | -9
CC(C)N(C(=O)Cn1c(SCC(=O)Nc2nccs2)nc2ccccc21)C(C)C | / | 0 | 0 | 4 | i | 23 | 0 | -11
Cc1ccc(CC2S/C(=N/N=C/c3ccco3)NC2=O)cc1 (stereo not drawn) | / | -2 | 7 | -8 | i | 10 | 4 | 6
CC(C)(CO)CNC(=O)CCc1nnc(CCCc2ccccc2)o1 | / | 2 | 2 | -6 | / | 4 | -9 | 0
COC(=O)C(C)n1cnc2c(nnn2-c2cccc(Cl)c2)c1=O (stereo not drawn) | 19 | 8 | -1 | -5 | i | -18 | 0 | -7
CCOC(=O)Cc1csc(NC(=O)c2cc3ccccc3o2)n1 | / | -1 | -3 | -1 | i | -7 | 17 | -2
CC(=O)Nc1ccc(S(=O)(=O)NC(CC(=O)O)c2ccc(C)cc2)cc1 (stereo not drawn) | 2 | 7 | -1 | 2 | i | -5 | -3 | -6
O=C(O)CC1Sc2ccccc2NC1=O (stereo not drawn) | -17 | -1 | 2 | 2 | i | / | 5 | -5
CCCCn1nc2cc(C(=O)NCC34CC5CC(CC(C5)C3)C4)ccc2c1OC | -8 | 5 | -2 | -10 | i | 20 | -3 | 30
CCC(=O)c1c[nH]c(C(=O)NCc2cccnc2)c1 | / | 2 | 7 | -2 | i | 17 | -4 | -11
Cc1ccc(S(=O)(=O)N(C)C)cc1NC(=O)COC(=O)c1c(-c2ccccc2)noc1C | / | 5 | -5 | / | i | -99 | / | /
O=C(c1ccccn1)N1N=C2/C(=C/c3ccc(F)cc3)CCCC2C1c1ccc(F)cc1 (stereo not drawn) | -9 | -7 | -7 | -13 | i | ? | -6 | 60
CC(C)C1Oc2ccccc2N(CC(=O)N2CCOCC2)C1=O (stereo not drawn) | -16 | 0 | 2 | 0 | i | -2 | -6 | /
C/C(=N\NC(=O)c1cc(-c2ccc(C)s2)[nH]n1)c1ccncc1 | -12 | 2 | 1 | -23 | i | 13 | 2 | -7
CCOC(=O)C1=C(CP(=O)(c2ccccc2)c2ccccc2)NC(=O)NC1c1ccc(Cl)cc1 (stereo not drawn) | 23 | 1 | -6 | 6 | i | 30 | 8 | -16
O=C(COc1ncnc2cc([N+](=O)[O-])ccc12)NCc1ccc2c(c1)OCO2 | -14 | 9 | 7 | 3 | i | / | 21 | -6
COC(=O)C1=C(C(=O)c2ccc(C)cc2)C(c2ccc(O)c(OC)c2)n2nnnc2N1 (stereo not drawn) | / | 5 | 5 | -3 | i | / | 7 | 11
COc1ccc(NC(=O)Cn2nnc(-c3ccccc3F)n2)cc1 | -23 | -2 | 0 | -10 | i | / | -6 | /
Cc1cccc(N2CCN(C(=O)c3cccs3)CC2)c1C | 0 | -1 | -2 | -10 | i | 7 | -4 | -5
CCN(C(=O)COC(=O)c1cccc(-n2cnnn2)c1)C1CCCCC1 | 13 | -3 | -2 | -4 | i | 10 | -8 | -3
CN(c1ccccc1)S(=O)(=O)c1cc(C(=O)N2CCN(c3ccccn3)CC2)ccc1Cl | -8 | 1 | -10 | -8 | i | / | -8 | 8
Cc1nn(Cc2ccc(C(=O)NC3CCCCC3)o2)c(C)c1Br | / | 3 | -2 | -2 | i | / | -11 | -6
CC(C)=NNc1cc([N+](=O)[O-])cc2c1C(=O)N(C)S2=O (stereo not drawn) | / | 3 | 6 | -8 | i | -2 | 3 | 2
CC(=O)Nc1sc2c(c1CN1CCN(c3ccccn3)CC1)CCCC2 | 12 | 9 | -4 | -9 | i | / | -10 | -9
COc1ccc(C2=NOC3(CC(=O)N(c4ccc(F)cc4)C3=O)C2)c(OC)c1 (stereo not drawn) | -17 | -4 | 4 | -6 | i | 0 | 8 | -9
COc1cc(NC(=O)c2cccc(C)c2)c(OC)cc1NC(=O)CN1CCCCC1 | / | -2 | 2 | -7 | i | 11 | 4 | 12
COc1cccc(CNC(=O)c2ccccc2NC(=O)C2=C(C)OCCS2)c1OC | -3 | 2 | -2 | -5 | i | 8 | -8 | -3
Cc1ccc(C(=O)N2N=C(c3ccccc3O)CC2c2ccccc2)cc1 (stereo not drawn) | -15 | 1 | -8 | 0 | + | 8 | -2 | -10
CCOC(=O)Cc1ncccc1C(=O)Nc1ccc(OC)cc1 | / | 9 | 6 | -7 | i | -14 | -2 | -3
O=c1nc(C(F)(F)F)nc2ccccn12 | -8 | 4 | 5 | 4 | i | -54 | 8 | 8
O=C(NNc1nc2ccccc2s1)Nc1ccccc1 | / | 1 | 5 | -6 | i | -52 | 1 | -5
Cc1ccccc1NC(=O)Cc1nc(COC(=O)c2ccc(O)cc2O)cs1 | -10 | 1 | 1 | -7 | i | 12 | 11 | 8
Cc1ccc(C(=O)c2c3ccccc3[n+]([O-])n2CCC(=O)O)cc1 | -16 | -4 | 0 | / | / | -30 | / | 0
COc1cc2c(cc1OC)[C@@H](NC(=O)c1ccc(C(F)(F)F)cc1)[C@H](OCc1ccccc1)C2 | -9 | 4 | 0 | / | / | -4 | / | /
C=CCn1c(C)cc(C(=O)CN2C(=O)NC3(CCCc4ccccc43)C2=O)c1C (stereo not drawn) | / | 0 | -2 | 3 | i | / | 10 | -10
CCN(CC)S(=O)(=O)c1ccc(-n2c(=O)c(C(C)C)c(C)n2C)cc1 | -20 | 1 | 3 | 2 | i | 1 | -5 | -10
Cc1ccc(NC(=O)C2(S(=O)(=O)c3ccc(Cl)cc3)CC2)c(Br)c1 | -7 | -1 | -6 | 20 | i | 9 | 12 | /
O=C(NC(c1ccc(F)cc1)c1ccc2ccccc2n1)C1CCN(CCOc2ccc(F)cc2)CC1 (stereo not drawn) | 1 | -1 | -9 | / | / | 4 | / | /
CC(=O)Nc1cccc(OCc2c(F)cccc2Cl)c1 | / | -3 | -1 | -1 | i | -126 | 7 | 6
Cc1[nH]c2ccccc2c1C(=O)C(=O)NCc1nnnn1-c1cccc(F)c1 | -23 | 1 | 0 | / | / | -19 | / | /
CC(C)(C)Cc1c(-c2ccccc2)nc2ccc(Cl)cn12 | 2 | -1 | -4 | / | / | -73 | / | /
COc1ccc2c(c1)SCC(=O)N2C | -11 | 1 | 6 | -2 | i | -331 | -2 | -11
COc1ccccc1CC(=O)Nc1cc(OC)c(NC(=O)c2ccccc2)cc1OC | -4 | 5 | -4 | -2 | i | -23 | 1 | 1
CC1CCCCC1NC(=O)c1ccc(CNc2c(N3CCCC3)c(=O)c2=O)cc1 (stereo not drawn) | -9 | 1 | 3 | -13 | i | 11 | -2 | -13
CN(C)c1ccc(/C=N/NC(=O)C2CC2c2ccccc2)cc1 (stereo not drawn) | / | -2 | 0 | -5 | i | 5 | 4 | 6
COc1ccc(S(=O)(=O)N2CCCCC2)cc1NC(=O)CNc1ccccc1C(C)=O | -2 | -3 | -12 | / | / | 5 | / | -9
O=C(CSc1nc2cc(Cl)ccc2s1)NC(=O)NCc1ccco1 | / | 1 | 3 | 23 | i | / | 4 | -7
CSCCOC(=O)C1=C(C)NC(=O)NC1c1ccc2c(c1)OCO2 (stereo not drawn) | 6 | -2 | -2 | 4 | i | -10 | -5 | -3
COC(=O)[C@]1(Cc2ccccc2)N[C@H](c2ccc(-c3ccccc3)cc2)[C@@H]2C(=O)N(C)C(=O)[C@@H]21 | -3 | -5 | -6 | / | i | -25 | / | 26
CCn1c(SCC(=O)Nc2cccc(NC(=O)c3cccs3)c2)nnc1-c1ccncc1 | -22 | 0 | 0 | -3 | i | / | 9 | 4
CCOC(=O)c1sc(N2C(=O)C(O)=C(C(=O)c3ccco3)C2c2ccc(C)o2)nc1C (stereo not drawn) | -18 | 1 | 2 | 4 | i | 30 | 15 | -3
Nc1nc(NCc2ccco2)nc(N2CCN(Cc3ccccc3)CC2)c1[N+](=O)[O-] | -1 | -1 | -3 | -1 | i | -4 | 0 | -6

(listing goes on)
SMILES | UUG fidelity | MT1-MMP act inh | MT1-MMP act inh RFP | eIF4H inh | Rce1 inh | HIV Env fusion | PABP FP inh | CSC inhib
Cc1ccc(S(=O)(=O)N(CC(=O)N2CCC(C)CC2)c2ccccc2)cc1 | / | -3 | 0 | -11 | i | -2 | -4 | -12
O=C(O)c1ccc(N=Nc2c(O)[nH]c3ccc(Br)cc23)cc1 | -12 | 2 | 3 | ? | i | -27 | ? | -1
O=C(Nc1nc2c(Cl)ccc(Cl)c2s1)c1ccco1 | -23 | -5 | -8 | -3 | i | -6 | -3 | 15
O=C(NCC1CCCO1)c1ccc(NC(=O)c2cc(F)c(F)cc2Cl)cc1 (stereo not drawn) | -9 | -4 | -4 | -10 | i | -4 | 7 | -10
CCCCNC(=O)c1c[nH]c2ccc(S(=O)(=O)N3CCOCC3)cc2c1=O | / | 1 | 2 | 3 | i | 4 | -16 | -13
CC1CCCC(CC(=O)O)(CC(=O)O)C1 (stereo not drawn) | -18 | 0 | -1 | 1 | i | -11 | 15 | -20
COc1ccc(-n2ccc3ccccc32)cc1 | / | 1 | -2 | -2 | i | -10 | 6 | 12
O=C(COC(=O)c1ccccc1Br)NCC1CCCO1 (stereo not drawn) | -9 | -1 | 1 | / | / | / | / | -15
Cc1cccc(C)c1N1C(=O)c2ccccc2C1=O | / | -2 | 1 | -8 | i | / | 5 | 1

Five entries drawn at random from those above:
SMILES | UUG fidelity | MT1-MMP act inh | MT1-MMP act inh RFP | eIF4H inh | Rce1 inh | HIV Env fusion | PABP FP inh | CSC inhib
COc1ccc(S(=O)(=O)N2CCCCC2)cc1NC(=O)CNc1ccccc1C(C)=O | -2 | -3 | -12 | / | / | 5 | / | -9
COc1cc(NC(=O)c2cccc(C)c2)c(OC)cc1NC(=O)CN1CCCCC1 | / | -2 | 2 | -7 | i | 11 | 4 | 12
C=CCn1c(C)cc(C(=O)CN2C(=O)NC3(CCCc4ccccc43)C2=O)c1C (stereo not drawn) | / | 0 | -2 | 3 | i | / | 10 | -10
CCN(CC)S(=O)(=O)c1ccc(-n2c(=O)c(C(C)C)c(C)n2C)cc1 | -20 | 1 | 3 | 2 | i | 1 | -5 | -10
O=C(O)c1ccc(N=Nc2c(O)[nH]c3ccc(Br)cc23)cc1 | -12 | 2 | 3 | ? | i | -27 | ? | -1

This is a subset; count on the stated rates, not on these rows.
